Tg IFNy HTS: T. gondii growth inhibition with IFN-gamma, primary screen, cell-based; Toxoplasma gondii growth in IFN-gamma-treated host cells; active compounds read low; reference of the scale not given here; activity change, negative = inhibition, %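 (about 20 µM by stock and volumes)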; actives 3.8% (n = 69,000); AID 1259416, 2018;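 active = below -70%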;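 note: host cells are HeLa cells infected with Toxoplasma gondii; parasite growth read as luciferase light; one replicate is shown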
An asterisk follows results filed as active; i = inactive. This is a subset. The share of hits here may be higher or lower than overall.

SMILES	Tg IFNy HTS
Cc1onc(-c2c(F)cccc2Cl)c1C(=O)n1ccc(-c2cccs2)n1	256
C[C@@H]1CCCCO[C@@H](CN(C)Cc2ccncc2)[C@@H](C)CN([C@@H](C)CO)C(=O)c2cc(NC(=O)Cc3ccccc3)ccc2O1	195
COc1ccc(CC2(CO)CCN(C(=O)c3ccc4c(c3)OCO4)CC2)cc1	-19
CCOc1ccc(NC(=O)Nc2ccc(-c3nc(-c4ccc(C)cc4)co3)cc2)cc1	62
O=C(Nc1ccc2c(c1)OCCO2)N1c2ccccc2Sc2ccccc21	346
CN1CCCC2(CCN(Cc3cn(CC(=O)O)c4ccccc34)C2)C1=O (stereo not drawn)	7
CCCc1cc(-c2cccnc2OCC)nc(C)n1	-5
CN(C)[C@@H]1CCN(C(=O)N2CCOCC2)[C@@H]1Cc1ccccc1	-2
O=C(CCc1ccc2[nH]ccc2c1)NCc1ccccn1	-17
Cc1oc(-c2ccc(OC(C)C)cc2)nc1Cn1c(=O)c2cccnc2n(-c2ccccc2)c1=O	34
COCC1(C(=O)N(C)Cc2ncc(C)c(OC)c2C)CCC1	-1
O=C(CNCc1ccc2c(c1)OCCCO2)NCc1ccccc1F	3
Cc1cnc(N2CCC3(CC2)NC(=O)CC3c2ccncc2)nc1 (stereo not drawn)	34
COc1ccc(S(=O)(=O)N2CCCCCC2c2cc(C)on2)cc1 (stereo not drawn)	-9
CC(C)C(=O)Nc1cccnc1-c1ccc(C(=O)O)s1	-2
Cc1cnc(N2CC(N3CCCCC3)C2)nc1N(C)C	-10
CCOc1ccccc1NC(=O)CC(=O)N(C)C(C)c1nccs1 (stereo not drawn)	0
CN(C)C(=O)CN1C[C@@H]2CCN(C(=O)C3CCCO3)CC[C@H]2S1(=O)=O (stereo partly drawn)	-2
CCC/C=C/c1ccc2nc[nH]c(=O)c2c1	32
NC(=O)c1cc(-c2ccnc3[nH]ccc23)ccc1Cl	-89*
Cc1nn(C)cc1-c1cncn1C(C)c1ccc2c(c1)CCCO2 (stereo not drawn)	-5
CCOc1ccc(-c2nc(Cn3ccn4nc(-c5ccc(CC)cc5)cc4c3=O)c(C)o2)cc1OC	205
Nc1ccnc(-c2ccc(CO)cc2)c1	-2
COc1cc(C(=O)N2CCC3(CN(C)C(=O)O3)C2)ccn1 (stereo not drawn)	-51
CC(C)C(=O)N1CC2CCC(C1)C2C(=O)NCCc1cccs1 (stereo not drawn)	316
Cc1cc(N)n(CC(=O)N2CCCC3(CCN(C)C3)C2)n1 (stereo not drawn)	2
Cn1nc2c(c1C(=O)Nc1ccc(N3CCCCC3)c(F)c1)CCCC2	-95*
O=S(=O)(Nc1ccccc1Sc1c(Cl)cncc1Cl)c1ccc(Cl)cc1	-55
FC(F)(F)c1cccnc1-n1cncn1	3
CC(C)c1csc(NC(=O)Cn2cc(C(=O)Nc3ccc(F)cc3)ccc2=O)n1	6

No new results follow: entries from further up.
SMILES	Tg IFNy HTS
Cc1oc(-c2ccc(OC(C)C)cc2)nc1Cn1c(=O)c2cccnc2n(-c2ccccc2)c1=O	34
COCC1(C(=O)N(C)Cc2ncc(C)c(OC)c2C)CCC1	-1
O=C(CNCc1ccc2c(c1)OCCCO2)NCc1ccccc1F	3
Cc1cnc(N2CCC3(CC2)NC(=O)CC3c2ccncc2)nc1 (stereo not drawn)	34
COc1ccc(S(=O)(=O)N2CCCCCC2c2cc(C)on2)cc1 (stereo not drawn)	-9
CC(C)C(=O)Nc1cccnc1-c1ccc(C(=O)O)s1	-2
Cc1cnc(N2CC(N3CCCCC3)C2)nc1N(C)C	-10
CCOc1ccccc1NC(=O)CC(=O)N(C)C(C)c1nccs1 (stereo not drawn)	0
CN(C)C(=O)CN1C[C@@H]2CCN(C(=O)C3CCCO3)CC[C@H]2S1(=O)=O (stereo partly drawn)	-2
CCC/C=C/c1ccc2nc[nH]c(=O)c2c1	32
NC(=O)c1cc(-c2ccnc3[nH]ccc23)ccc1Cl	-89*
Cc1nn(C)cc1-c1cncn1C(C)c1ccc2c(c1)CCCO2 (stereo not drawn)	-5
CCOc1ccc(-c2nc(Cn3ccn4nc(-c5ccc(CC)cc5)cc4c3=O)c(C)o2)cc1OC	205
Nc1ccnc(-c2ccc(CO)cc2)c1	-2
COc1cc(C(=O)N2CCC3(CN(C)C(=O)O3)C2)ccn1 (stereo not drawn)	-51
CC(C)C(=O)N1CC2CCC(C1)C2C(=O)NCCc1cccs1 (stereo not drawn)	316
Cc1cc(N)n(CC(=O)N2CCCC3(CCN(C)C3)C2)n1 (stereo not drawn)	2
Cn1nc2c(c1C(=O)Nc1ccc(N3CCCCC3)c(F)c1)CCCC2	-95*

(listing goes on)
SMILES	Tg IFNy HTS
Cc1cc(NC(=O)CSc2nnc(N)s2)no1	3
O=C(O)c1cc2ccccc2s1	-71*
CCCCN(C)C(=O)Cn1nc(C)c2sc(-c3ccccc3)nc2c1=O	-34
COC(=O)Cn1c(CCS(=O)(=O)c2ccc(C)cc2)nc2ccccc21	-5
CC(=O)Nc1ccc(Cl)c(C(=O)N(C)CCCN2CCCCCC2)c1	-2
CCOC(=O)CSC1=Nc2ccccc2C2=NC(CCC(=O)NCc3ccco3)C(=O)N12 (stereo not drawn)	28
O=C(c1ccoc1)N1CCC2(CC1)COC(COCc1ccccn1)C2 (stereo not drawn)	-1
CC(C)NC(=O)N1CCC2(CC1)Nc1cc(F)ccc1-n1cccc12	156
O=C(Oc1ccc(C(=S)N2CCOCC2)cc1)c1ccccc1	-8
O=C(c1cccc2cccnc12)N(Cc1ccsc1)CC1CCCO1 (stereo not drawn)	42
CCN(CC)c1ncnc2c1cnn2-c1ccccc1	i
CN1Cc2ccccc2C2(CCN(C3CCOCC3)CC2)C1	5
CCOC(=O)NC(C(=O)OCC)(c1ccc(F)cc1)C(F)(F)F (stereo not drawn)	71
Cc1nc(CC(=O)NCc2scnc2-c2ccccc2)cs1	1
COc1ccc(CNC(=O)Cn2ncc3c(N4CCOCC4)ncnc32)cc1OC	43
O=C(COc1ccccc1Cl)Nc1cncc(-c2nc3ccccc3o2)c1	5
COc1ccc(C(=O)N2CCN(CC(C)(C)CN3CCCC3)CC2)cc1	-6
COc1ccc(C(=O)NCCc2csc(-c3ccc(C(F)(F)F)cc3)n2)cc1OC	i
O=c1[nH]c(=O)c2cc(S(=O)(=O)NCC3(c4ccccc4)CCCC3)ccc2[nH]1	114
CC(=O)N1CCCn2nc(C(=O)NC(C)Cc3cc(C)[nH]n3)cc2C1 (stereo not drawn)	-4
OC(CNCCNc1ncccc1C(F)(F)F)Cn1ccc2ccccc21 (stereo not drawn)	-82*
CCS(=O)(=O)N1CC2(C1)[C@H](c1ccccc1)[C@@H](CO)N2C(=O)c1ccccc1	28
CCCn1cc(CNC(=O)Cc2ccccn2)cn1	5
COc1cc(-c2cccc3cccnc23)ccc1NC(C)=O	14
CCN(CC)Cc1cnc2c(C(=O)N3CCCCC3C(N)=O)cnn2c1 (stereo not drawn)	-1
COc1ccc([C@@H]2C[C@H](NC(C)=O)C[C@H](c3ccc(Cl)cc3)O2)cn1	-3
CCOc1ncccc1-c1ccc(C)nc1N	-90*
Cc1ncc(C)c(N2C[C@@H]3CN(C(=O)C4CC4)C[C@]3(C(=O)O)C2)n1	-1
N#C[C@@H]1[C@H](c2ccccc2-c2ccc(F)cc2)[C@H](CO)N1C(=O)Cc1cccnc1	5
COc1cccc(CC(=O)N2CCC3(CC2)Nc2cc(OC)ccc2-n2cccc23)c1	-34
CCN(CC)C1CCN(C(=O)c2cc(-n3cccn3)ccc2Cl)CC1	3
Cc1ccsc1[C@@H]1CCN(Cc2cc(CC(C)C)n[nH]2)C[C@H]1O	-2
Cc1ccc2nc(C3CCN(S(=O)(=O)c4sc(C)nc4C)CC3)[nH]c2c1	12
Cn1ccnc1CN1CCC2(CC(=O)N(c3ccc(C#N)cc3)C2)C1 (stereo not drawn)	-7
CCOc1ccc(C(=O)NCCc2sc(-c3ccccc3)nc2C)cc1	i
COc1ccccc1NC(=O)COc1nc(C)nc2ccccc12	-2
Cc1cc(C)c2c(=O)n(Cc3nc(-c4ccccc4)oc3C)c(=O)n(-c3ccccc3)c2n1	1
CCOc1ccc(-c2noc(-c3c(O)c4ccccc4[nH]c3=O)n2)cc1OC	78
Cc1ccc(S(=O)(=O)NCCC(c2ccccc2)c2ccco2)cc1 (stereo not drawn)	1
CCNC(=O)c1c2c(-c3ccccc3)ncnc2n2ccccc12	-5
CC(=O)Nc1nc(C)c(-c2csc(Nc3ccccc3)n2)s1	32
CCOCC1CN(Cc2cccs2)Cc2nn(C)cc21 (stereo not drawn)	-15
Cc1cc(-c2ccc(N)nc2)cc(C2CCN(C(=O)c3ccc4c(c3)OCCO4)C2)n1 (stereo not drawn)	2
CC1=C(C(=O)NCc2ccccc2Cl)C2(CCN(S(=O)(=O)c3cccs3)CC2)OC1=O	28
CC1CN(CCNC(=O)C2CCCc3c2[nH]c2ccccc32)Cc2ccccc2O1 (stereo not drawn)	29
c1ccc(-c2nc[nH]c2-c2ccccc2Cn2cccn2)cc1	-7
CS(=O)(=O)CC(=O)N1C[C@H]2COC[C@@]2(COc2cccnc2)C1	-15
Cc1noc(C)c1S(=O)(=O)Nc1ccc2c(c1)CC(=O)N([C@@H](C)CO)C[C@H](C)[C@H](CN(C)Cc1ccc(Oc3ccccc3)cc1)O2	-59
CCn1nc(C(C)C(=O)Nc2ccnn2C2CCN(C)CC2)c2ccccc2c1=O (stereo not drawn)	8
CC1C=NC(S(=O)(=O)N2CC[C@@H]3[C@H](CO)N(C)c4ccc(C#Cc5cccnc5)cc4[C@@H]32)=N1 (stereo partly drawn)	5
Continued:
SMILES	Tg IFNy HTS
Cc1ccc2nc(CN(C)Cc3ccc(S(C)(=O)=O)cc3)[nH]c2c1	-34
COc1ccc2[nH]cc(CCNc3ccc(S(=O)(=O)c4ccc(C)c(C)c4)nn3)c2c1	-4
COc1ccc2c3c(n(C)c2c1)[C@H](CO)NCC31CCN(Cc2cc(-c3ccccc3)on2)CC1	-60
CCN1CCC2(CC1)OC(=O)C(C)=C2C(=O)Nc1ccc2c(c1)OCCO2	80
Cc1cnc(-n2cnnc2)c(-c2ccc(F)c(CO)c2)c1	3
CCc1cnc(N2CCc3ncnc(OC)c3CC2)nc1	-32
C[C@H]1CN([C@@H](C)CO)C(=O)c2cc(NS(=O)(=O)c3cn(C)cn3)ccc2O[C@@H]1CN(C)C(=O)Nc1cccc2ccccc12	5
Cc1ccnc(C(NC(=O)c2cccc(-n3cccn3)c2)C2CC2)c1 (stereo not drawn)	11
COC(=O)c1ccccc1NC(=O)c1c(O)c2cccnc2n(-c2ccc(F)cc2)c1=O	57
Cc1cc(CN(C)C(=O)c2cc(CN3CCC(Cc4ccccc4)CC3)on2)on1	-5
CCn1c(Sc2ncnc3c2sc2nc(C)cc(C)c23)nnc1-c1cccs1	-24
COc1ccc(S(=O)(=O)N2Cc3ccccc3CC2C(=O)Nc2ccc(C)cc2)cc1 (stereo not drawn)	-4
CC(C)N(C)Cc1cnc2n1CCN(C(=O)c1ccsc1)C2C (stereo not drawn)	36
Cc1cnc(C(=O)NC2CCN(C(=O)Cn3ccc4ccncc43)CC2)cn1	8
CCOC(=O)N1CCC2(CC1)OC(=O)C(C)=C2C(=O)NCc1ccccc1C	121
Cc1csc(NC(=O)Cn2c(=O)ccc3cc(S(=O)(=O)N4CCCC4)ccc32)n1	11
CC1(C)NC(=O)N(Cc2ccc(NC(=O)c3cc(-c4ccccc4F)no3)cc2)C1=O	29
C[C@H](CO)N1C[C@H](C)[C@H](CN(C)S(=O)(=O)c2ccc(F)cc2)OCCCC[C@H](C)Oc2ccc(NC(=O)CCCCCC(=O)Nc3ccccc3N)cc2C1=O	70
COc1ccc(CN2CCNC(=O)C2CC(=O)N2CCCO2)c(OC)c1 (stereo not drawn)	-2
c1ccn2ncc(CNc3nc(C4CCCC4)nc4c3CNC4)c2c1	14
Cc1ccc(C(=O)N(C)C(C)c2ccon2)cc1N1CCNC1=O (stereo not drawn)	2
O=C1C(Cl)=C(NCCN2CCOCC2)C(=O)c2ncccc21	-80*
CN(C)C1CCN(C(=O)c2cc(-c3ccn(C4CCCC4)n3)n3ccccc23)CC1	7
CCn1nc(C)c(NC(=O)CN2CC[C@@H](F)C2)c1C	4
CN(Cc1ccc(-n2cccn2)cc1)Cc1ncccc1C(=O)O	-48
O=C(CN1C(=O)CCc2cc(Br)ccc21)NCCc1nc2ccccc2[nH]1	32
CCOC(=O)CSc1nc(Nc2ccc(F)c(F)c2)c2ccccc2n1	5
O=C([C@H]1[C@H](CO)[C@H]2Cn3c(cccc3=O)[C@@H]1N2Cc1cocn1)N1CCCCC1	10
CCc1cn[nH]c1C1CCCN(C(=O)c2cc3cc(Cl)cc(OC)c3o2)C1 (stereo not drawn)	-66
Cn1ncc(Br)c1NC(=O)CN1CCOCC1	3
Cc1cccc(N2C[C@@H]3CN(c4cccnc4)C(=O)[C@@H]3C2)n1	21
COc1ccc2c3c(n(C)c2c1)[C@@H](CO)NCC31CCN(C(=O)Nc2ccc3c(c2)OCO3)CC1	8
COc1ccc(NC(=O)C(=O)NCCc2sc(-c3ccc(Cl)cc3)nc2C)cc1OC	161
Cc1ccccc1CNC(=O)Cn1ncc2c(N3CCCC3)ncnc21	33
Cc1cc2c(cc1CN(C)Cc1c(C)noc1C)OCO2	12
C=CCNc1ncnc2c1cnn2-c1ccc(Cl)cc1	-56
O=C(Cc1cccc(F)c1)N1CCn2cc(Cn3cncn3)nc2C1	-15
COc1ccc(NC(=O)C2=NOC3(CCCN(S(=O)(=O)c4ccc(F)cc4)C3)C2)cc1 (stereo not drawn)	-61
CCc1ncc(CN2CCN(Cc3cccc(C)c3)CC2)cn1	-43
CCc1ccccc1NC(=O)N1CCC2(CC1)NC(=O)c1cc(F)ccc1N2C	-27
